RGS16-Gao: RGS16-Galphao interaction regulator (human); bead-based flow cytometry RGS16-Galphao binding, fluorescence; actives lie on both sides; 220,000 compounds, 0.38% hits; binding response (% of control), % at 10 µM; AID 1441;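 active = below 25% or above 175%, edge rows of some plates excepted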;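 also: Galphao activated by GDP with aluminum fluoride before binding; 100% = wells without compound and 0% = beads without RGS; some results beyond the cut were filed as inactive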
HSV augment: increases HSV replication in cells. HSV replication augmentation in cells, fold increase. maximum fold increase. 220,000 compounds, 0.005% hits;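 active = peak rise of 1.5-fold or more in the series; inconclusive = self-fluorescent or not available for retest; tested in PC3 cells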;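 also: first round at 10 µM; read as green reporter fluorescence; hits show the peak of a series up to 25 µM; 1 = signal of infected wells without compound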
PKD1 inh: blocks activity of human protein kinase D1 | Q15139 | PKD1 kinase fluorescence polarization assay | inhibition, %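 (about 10 µM by stock and volumes)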 | 200,000 compounds, 0.056% hits | AID 797;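 active = inhibition of 50% or more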;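 also: controls were vehicle for no effect and a reference inhibitor for full effect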
Target sequence (Q15139 whole entry, looked up): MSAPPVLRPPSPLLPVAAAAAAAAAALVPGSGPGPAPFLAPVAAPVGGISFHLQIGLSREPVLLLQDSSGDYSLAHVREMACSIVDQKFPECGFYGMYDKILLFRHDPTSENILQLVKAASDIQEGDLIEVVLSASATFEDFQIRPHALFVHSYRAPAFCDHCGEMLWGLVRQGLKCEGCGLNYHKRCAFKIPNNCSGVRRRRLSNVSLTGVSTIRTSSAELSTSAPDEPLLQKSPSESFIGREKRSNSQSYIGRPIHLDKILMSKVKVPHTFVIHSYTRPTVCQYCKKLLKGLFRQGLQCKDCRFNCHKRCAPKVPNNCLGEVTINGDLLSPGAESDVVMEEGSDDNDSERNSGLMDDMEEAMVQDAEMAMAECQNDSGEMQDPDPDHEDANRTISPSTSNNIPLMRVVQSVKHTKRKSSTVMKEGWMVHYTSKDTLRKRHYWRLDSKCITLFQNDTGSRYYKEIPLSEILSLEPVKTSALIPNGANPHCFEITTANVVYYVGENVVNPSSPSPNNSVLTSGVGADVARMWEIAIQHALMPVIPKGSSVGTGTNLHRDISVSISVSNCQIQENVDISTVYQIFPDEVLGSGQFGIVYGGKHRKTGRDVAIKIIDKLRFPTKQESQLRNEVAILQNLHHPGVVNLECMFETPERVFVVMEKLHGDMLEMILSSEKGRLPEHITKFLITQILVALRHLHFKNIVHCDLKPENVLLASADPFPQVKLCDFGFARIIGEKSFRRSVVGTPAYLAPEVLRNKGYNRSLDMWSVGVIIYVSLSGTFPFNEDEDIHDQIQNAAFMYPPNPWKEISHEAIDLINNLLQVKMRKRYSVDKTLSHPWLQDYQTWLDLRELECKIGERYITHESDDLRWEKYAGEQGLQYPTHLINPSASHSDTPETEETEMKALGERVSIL
Insulin prom inh: TRM-6 insulin promoter activity inhibition. TRM-6 cells (human fetal islet line), insulin promoter-eGFP reporter, imaging; reporter expression induced with tamoxifen. inhibition, % at 2 µM. 130,000 compounds, 0.9% hits;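 active = inhibition above the mean plus 3 SD, with well images judged a real hit on visual review, cut at about 60% in these data, passing the limit was not always enough; inconclusive = inhibition over the cutoff but images rejected on review; inactive = inhibition not above the cutoff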
GALR2 ag: agonists of human galanin receptor 2 (GALR2). O43603. GALR2-expressing cells, agonist activation read-out. activation, %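 (tested at 5 µM)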. 140,000 compounds, 0.48% hits;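 active = above mean plus 3 SD of all compounds, about 5% in these data, not always enough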;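 also: 0% = vehicle buffer wells and 100% = reference agonist at full effect; tested in CHO reporter cells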
Insulin prom inh cell count: further read-out of Insulin prom inh, marked with its call; normalized cell count, %; measured here: cell count, toxicity; reference of the scale not given here;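 cells exposed to compound for 48 h; stained nuclei by imaging scaled within each plate; lower means fewer cells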
HSV augment primary fold: further read-out of HSV augment, marked with its call; fold increase; compound at 10 µM; measured here: primary screen fold increase 10 uM; tested in PC3 cells;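 GFP signal in the first replicate; 1 = infected wells without compound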
* = called active by the depositor; i = inactive; ? = inconclusive; / = no result given; & = joins results of further samples; [ ] = another dose, or the depositor's remark.

no.	molecule	Insulin prom inh	Insulin prom inh cell count	RGS16-Gao	PKD1 inh
1	CC(=O)c1c(O)c2ccccc2n(C(C)C)c1=O	/	/	102	5
2	CCCCc1cc(=O)oc2cc(OS(C)(=O)=O)ccc12	14	105	105	-18
3	Cn1cc(Br)c(C(=O)n2cc(Br)cn2)n1	12	96	102	8
4	O=C(COC(=O)C12CC3CC(CC(C3)C1)C2)NCCc1ccccc1	-27	181	105	2
5	COc1ccc(OC)c(NC(=O)CNC(=O)c2ccc([N+](=O)[O-])cc2)c1	/	/	105	3
6	Cc1nonc1NC(=O)CSc1nc2ccccc2cc1C#N	/	/	113	-8
7	Cc1ccccc1NC(=O)Cc1nnc(N)s1	/	/	106	/
8	CCOc1ccc(Cn2c(=O)sc3ccccc32)cc1OC	/	/	105	/

no.	HSV augment	HSV augment primary fold	GALR2 ag
1	i	1.2	/
2	i	0.94	-0.6
3	i	0.93	/
4	i	0.98	-1.8
5	i	0.97	/
6	?	/	/
7	i	1.1	/
8	i	0.96	/

Remaining list, next part
no.	molecule	Insulin prom inh	Insulin prom inh cell count	RGS16-Gao	PKD1 inh
9	N#CC(c1ccncc1)(c1ncc(C(F)(F)F)cc1Cl)N1CCOCC1 (centres undefined)	15	96	62	-4
10	COc1cc(OC)cc(C(=O)NNC(=S)Nc2ccc(S(N)(=O)=O)cc2)c1	/	/	105	2
11	Cc1cc(C)cc(NC(=O)CSc2nc3c(oc4ccccc43)c(=O)n2-c2ccccc2)c1	0	62	25	11
12	CCOC(=O)C(=O)N/N=C/c1ccc(F)cc1	/	/	98	/
13	O=C1OCC2=C1C(c1ccccc1)CC(=O)N2c1ccccc1 (centres undefined)	29	118	97	9
14	COC(=O)Nc1nc(-c2ccccc2)c(C(=O)c2ccccc2)s1	-17	12	103	6
15	Cc1nn(-c2ccccc2)c(NC(=O)c2cccs2)c(-c2ccccc2)c1=O	47	102	99	-2
16	Cc1cccc2cc(/C=N/NC(=O)CN3CCOCC3)c(Cl)nc12	0	89	103	19

no.	HSV augment	HSV augment primary fold	GALR2 ag
9	/	/	/
10	i	0.81	/
11	i	0.98	-0.4
12	i	1	/
13	i	0.92	/
14	i	0.62	0.2
15	i	0.94	-1.5
16	/	/	-1.3

Next entries.
no.	molecule	Insulin prom inh	Insulin prom inh cell count	RGS16-Gao	PKD1 inh
17	NC(=O)C1CCN(C2CC(=O)NC2=O)CC1 (centres undefined)	-9	106	108	-7
18	CCOc1cccc(C(=O)Nc2nnc(-c3ccco3)s2)c1	/	/	100	0
19	CCCc1cc(C(=O)NNC(=S)NC(C)c2ccccc2)cs1 (centres undefined)	-8	104	105	-4
20	CC(=O)OC1CC(C)N(C(=O)c2ccccc2)c2ccc(C)cc21 (centres undefined)	/	/	98	0
21	CCOc1cccc(CN2CCCC(CCC(=O)NCc3ccccc3F)C2)c1O (centres undefined)	/	/	101	-7
22	O=C(NCc1cccnc1)NC1(C(F)(F)F)Oc2ccccc2O1	50	113	101	12
23	CN(CCC1CCOCC1)C(=O)CC1C(=O)NCCN1C/C=C/c1ccccc1 (centres undefined)	/	/	109	2
24	Cc1cccc(OCC(=O)N2CCC(N3CCOCC3)CC2)c1	38	162	102	8

no.	HSV augment	HSV augment primary fold	GALR2 ag
17	i	1	/
18	i	0.85	-1.1
19	i	1	-2.8
20	i	1.1	0.6
21	i	0.87	/
22	i	0.92	-2.5
23	i	0.96	/
24	i	0.94	-1.6

New compounds follow:
no.	molecule	Insulin prom inh	Insulin prom inh cell count	RGS16-Gao	PKD1 inh
25	Cc1ccc2c(c1)S/C(=C/c1ccc[n+](C)c1)N2CCO	-30	92	104	-1
26	O=C(O)c1cccc2c(/C=N/Nc3ccccn3)c[nH]c12	/	/	103	/
27	O=C(Nc1nc2c(s1)CCCC2)c1cc(-c2ccc3c(c2)OCO3)nc2ccccc12	/	/	90	-1
28	CCOC(=O)C1=C(C)NC(=O)NC1C (centres undefined)	35	63	101	-6
29	CC12CCC(=O)N1c1c(sc3nc(N4CCOCC4)c4c(c13)CCCC4)C(=O)N2 (centres undefined)	-29	77	98	-5
30	CCN(CC)CCC(=O)NN	/	/	99	-3
31	Cc1ccc(Oc2nc3c(C)cccn3c(=O)c2/C=C(\C#N)C(N)=O)cc1	/	/	106	/
32	O=C(Nc1cccc(-c2nc3ccccc3[nH]2)c1)c1cccc(NC(=O)c2ccco2)c1	/	/	101	-1

no.	HSV augment	HSV augment primary fold	GALR2 ag
25	i	1.1	/
26	i	1.1	/
27	i	1	0.3
28	i	0.72	0.2
29	i	0.98	3.4
30	i	1.1	/
31	i	0.87	/
32	i	0.5	0.2

Along the list, from the results shown:
Nos. 16–24 in RGS16-Gao, in turn: 103, 108, 100, 105, 98, 101, 101, 109, 102
Nos. 16–24 in HSV augment, in turn: /, i, i, i, i, i, i, i, i

Rewritten with bars between the fields: part of the list above
entry | molecule | Insulin prom inh | Insulin prom inh cell count | RGS16-Gao | PKD1 inh | HSV augment | HSV augment primary fold | GALR2 ag
28 | CCOC(=O)C1=C(C)NC(=O)NC1C (centres undefined) | 35 | 63 | 101 | -6 | i | 0.72 | 0.2
29 | CC12CCC(=O)N1c1c(sc3nc(N4CCOCC4)c4c(c13)CCCC4)C(=O)N2 (centres undefined) | -29 | 77 | 98 | -5 | i | 0.98 | 3.4
30 | CCN(CC)CCC(=O)NN | / | / | 99 | -3 | i | 1.1 | /

New compounds follow.
no.	molecule	Insulin prom inh	Insulin prom inh cell count	RGS16-Gao	PKD1 inh
33	COc1ccc(NS(=O)(=O)c2cc(NC(=O)c3ccc(C)o3)ccc2N2CCCCC2)cc1	22	74	61	-4
34	Cc1cccc(OCC(=O)NC(=S)N2CCCc3ccccc32)c1	/	/	100	1
35	c1ccc(N2CCOCC2)c(Nc2nc3ccccc3n3cnnc23)c1	/	/	79	-6
36	Clc1cc2c(cc1/C=N/Nc1nc(N3CCOCC3)nc(N3CCOCC3)n1)OCO2	14	134	105	1
37	COc1ccc(NC(=O)CSc2nnc(Cn3nnc4ccccc43)n2C)cc1	i	44	101	-16
38	CCCCCNCc1ccc(OCc2ccc(Cl)nc2)c(OC)c1	/	/	266*[activator]	1
39	CCn1c(SCC(=O)Nc2ccccc2OC)nnc1-c1cnccn1	/	/	96	-3
40	CC(=O)C1=C(O)C(=O)N(Cc2ccccc2)C1c1ccco1 (centres undefined)	27	109	99	-8

no.	HSV augment	HSV augment primary fold	GALR2 ag
33	i	1	-2.0
34	i	1	-2.8
35	i	0.55	-1.4
36	i	0.82	/
37	i	0.94	-3.5
38	i	0.92	-0.9
39	i	0.88	-0.3
40	i	1.1	-1.1

The listing continues:
no.	molecule	Insulin prom inh	Insulin prom inh cell count	RGS16-Gao	PKD1 inh
41	O=C(Nc1cccc(-c2cn3c(n2)SCC3)c1)c1ccc2c(c1)OCO2	0	184	106	-3
42	CCOC(=O)c1cnc(Nc2ccc(OCC)cc2)nc1C	9	134	103	-3
43	COc1ccc(O)c(C=NCC(C)N=Cc2cc(OC)ccc2O)c1 (centres undefined)	64	74	114	-7
44	CC1(C)CC(=O)C2=C(C1)NC(Nc1nc3ccccc3o1)=NC21CCCC1	-8	155	96	-1
45	COc1ccc(CN=Cc2[nH]c3ccc(Br)c(Cl)c3c2O)cc1	-7	53	103	-5
46	Cc1ccc(S(=O)(=O)NC2(C(=O)O)CCCCC2)cc1	38	127	106	-2
47	Nn1cnnc1N/N=C/c1cc(Br)cc(Br)c1O	-15	98	100	9
48	C=CCSc1nc2nc(C)cc(C)n2n1	-3	109	72	-4

no.	HSV augment	HSV augment primary fold	GALR2 ag
41	i	1	/
42	i	0.92	0.2
43	/	/	/
44	i	0.99	-0.1
45	/	/	-2.2
46	i	0.79	-0.2
47	/	/	-3.8
48	i	0.88	-1.0

Continuation.
no.	molecule	Insulin prom inh	Insulin prom inh cell count	RGS16-Gao	PKD1 inh
49	O=C(CN1CCN(c2cccc(Cl)c2)CC1)N1CCCC1	7	117	103	-3
50	O=C(NC(CO)(CO)CO)c1coc(=O)c(Br)c1	35	81	100	-4
51	O=C(Nc1ccccc1)NC1CC2CCC(C1)N2Cc1nnnn1Cc1ccc2c(c1)OCO2 (centres undefined)	0	71	100	-6
52	O=C(NC(=S)Nc1cccc(Cl)c1N1CCCCC1)c1ccco1	-17	90	98	-10
53	N/C(=N\OC(=O)c1ccco1)c1ccc(Br)cc1	-16	113	99	-5
54	Cc1cc(C)cc(-n2nnc(C(=O)NCc3ccc4c(c3)OCO4)c2N)c1	-16	157	102	-10
55	COc1cc(CNn2c(C)n[nH]c2=S)cc(Cl)c1OCc1ccccc1	/	/	100	-1
56	C#CCn1c(=NC(=O)CN2C(=O)CCC2=O)sc2cccc(C)c21	/	/	89	-6

no.	HSV augment	HSV augment primary fold	GALR2 ag
49	i	0.7	-3.3
50	i	0.82	-1.7
51	i	0.76	-2.4
52	i	0.81	0.5
53	i	0.92	-1.9
54	i	0.96	-2.3
55	i	0.78	-2.4
56	i	1.1	-2.3

The list continues.
no.	molecule	Insulin prom inh	Insulin prom inh cell count	RGS16-Gao	PKD1 inh
57	CNC(=S)N1CCC(NC(=O)C(Cc2ccccc2)NC(C)=O)CC1 (centres undefined)	/	/	105	3
58	CCOc1ccccc1OCC(=O)Nc1ccc(S(=O)(=O)Nc2ncccn2)cc1	-12	120	/	-5
59	O=C(c1ccccn1)N(Cc1ccco1)C1(C(=O)NC2CCCCC2)CCCCC1	-67	45	104	9
60	O=C(O)C1CCC(=O)N(C2CC2)C1c1ccccc1 (centres undefined)	29	51	101	0
61	CC(=O)c1ccc2noc(-c3cccc(C)c3)c2c1	55	98	98	-4
62	CCOc1cc(/C=N/O)cc(Br)c1OCC	-207	52	50	-1
63	COc1ccc(-n2c(COc3cccc4cccnc34)nnc2SCC(=O)O)cc1	/	/	93	2
64	CN(C)S(=O)(=O)c1cccc(C(=O)NCCCn2ccnc2)c1	44	38	89	-1

no.	HSV augment	HSV augment primary fold	GALR2 ag
57	i	0.96	/
58	i	0.85	-1.1
59	i	1.1	-2.5
60	i	0.9	-0.9
61	i	1.1	/
62	i	0.93	-2.6
63	i	1.1	/
64	i	0.93	/

Structures listed above that bear a hit mark in RGS16-Gao.
item	mol	RGS16-Gao	PKD1 inh	HSV augment	HSV augment primary fold	GALR2 ag
38	CCCCCNCc1ccc(OCc2ccc(Cl)nc2)c(OC)c1	266*[activator]	1	i	0.92	-0.9

Additional structures follow.
no.	molecule	Insulin prom inh	Insulin prom inh cell count	RGS16-Gao	PKD1 inh
65	O=C(Oc1cccc(C(=S)N2CCOCC2)c1)c1cccc([N+](=O)[O-])c1	/	/	112	-1
66	COC(=O)c1ccccc1NC(=O)CSc1nc(N)cc(N)n1	/	/	96	-2
67	COCCn1cc(C(=O)N2CCN(C)CC2)c2c3ccccc3n(C)c2c1=O	/	/	99	-11
68	CC(C)(C)NC(=O)/C(=C\c1ccccc1F)NC(=O)c1ccc([N+](=O)[O-])cc1	0	88	101	-9
69	O=C(NC(=S)Nc1ccc2c(c1)OCCO2)c1ccc(F)cc1Cl	-58	54	102	-2
70	CC1(C)CC(=O)C2=C(C1)OC(N)=C(C#N)C21C(=O)N2CCCc3cccc1c32 (centres undefined)	60	40	103	-1
71	O=S(=O)(c1ccc(F)cc1)N1CCN(CC(O)COCc2cccs2)CC1 (centres undefined)	/	/	100	7
72	CC(C)c1ccc(-c2c(C#N)c(N)nc3c2CCCCC3)cc1	7	144	100	4
73	Cc1cc(-c2cn3ccccc3n2)c(C)n1-c1ccccc1	21	141	102	0
74	O=c1c2ccccc2ncn1-c1ccc(Cl)cc1	/	/	98&106	/

no.	HSV augment	HSV augment primary fold	GALR2 ag
65	i	1.1	/
66	i	0.84	-3.9
67	i	1.4	-1.7
68	i	0.97	/
69	i	0.96	-1.1
70	i	0.77	-0.5
71	i	0.99	-0.3
72	i	0.85	-1.3
73	i	1.3	/
74	i	1.3&0.93	/
